PrP UTR inh: inhibition of PrP 5' UTR reporter expression. cell-based PrP 5' UTR mRNA reporter, plate reader. hit rate 0.35% among 340,000. inhibition, % (test concentration not listed);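 active = every replicate at 50% or more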;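 also: 0 = median of the neutral control wells; tested in H4 reporter cells; numbers are from one replicate; inactives centre near -14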
BJeLR lethal: kills HRASV12-expressing BJeLR cells; BJeLR (HRASV12) viability, CellTiter-Glo ATP luminescence, 48 h; reference of the scale not given here; inhibition, % (no concentration beside the values); hit rate 0.17% among 300,000; AID 1554;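 active = replicate mean above 50%; inconclusive = above 50% but judged a plate artefact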;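 also: 50 nL library stock added to about 25 µL; numbers are from one replicate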
Sa ugtP lethal: compounds lethal to S. aureus RN4220 ugtP deletion mutant; growth inhibition, % (no concentration beside the values); AID 1259309; OD600 growth, 16 h; some inactives read as strong as hits; hit rate 0.54% among 330,000;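 active = z-score under -3 and OD600 up to 0.15 on both plates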;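 also: plate controls were untreated wells for no effect and antibiotic for full effect; wells of about 80 µL received 100 nL stock; the first replicate is given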
Mtb hypoxia inh: reduces hypoxia-regulated biosensor signal in M. tuberculosis | M. tuberculosis hypoxia-regulated fluorescent reporter, fluorescence | fluorescence inhibition, % (no concentration beside the values) | hit rate 0.1% among 300,000 | AID 1159583;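 active = 35 to 45% if threefold the growth effect, above 45% if 1.5-fold the growth effect; inactive = the rest, general growth blockers included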;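 also: wells of about 50 µL received 100 nL stock; 0% = vehicle wells and 100% = reference inhibitor wells; whole bacteria with a GFP reporter of the hypoxia response; strong numbers were not always called active; many hits fall short of the cut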
Bead autofluor: counter-screen for toxin protease inhibitors: compound fluorescence | hit rate 3.1% among 360,000 | fluorescence intensity (concentration not given with the values) | compound autofluorescence counterscreen, microsphere flow cytometry; hits give high values;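 active = at least 3 SD above the mean of all compounds, about 16000 in these data; inconclusive = too few beads counted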;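 also: 100 nL of 1 mM stock went into each well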
RN4220 kill: S. aureus RN4220 growth inhibition | OD600, 16 h | inhibition, % (no concentration beside the values) | hit rate 0.33% among 330,000;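 active = z-score of -3 or lower and OD600 up to 0.18 on both plates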;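 also: plate controls were untreated cells for no effect and reference antibiotic for full effect; stock transfer was 100 nL into about 80 µL; one replicate is shown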
Mtb hypoxia inh growth: also measured in Mtb hypoxia inh; calls as there; growth inhibition, %; measured here: M. tuberculosis growth (absorbance);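 0% = vehicle and 100% = reference antibiotic; read after six days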
The depositor's hits bear a star; ? = inconclusive; · = not tested or not shown.

entry	SMILES	Bead autofluor	Sa ugtP lethal	PrP UTR inh	BJeLR lethal	Mtb hypoxia inh	Mtb hypoxia inh growth	RN4220 kill
1	CCOc1ccc(-c2nnc(NC(=O)Cc3ccc(OC)cc3)o2)cc1	5671	21	-29	-4	-8	3	-1.9
2	O=C(Nc1ccc(Br)c(Cl)c1)c1ccco1	3160	2	-77	5	21	14	-0.1
3	Cc1cc(OC(=O)c2cccc([N+](=O)[O-])c2)c(C)cc1CN1CCOCC1	3224	3	-12	13	-7	-13	-0.1
4	CCN1CCN(c2ccc(S(=O)(=O)N3CCCCC3)cc2NC(=O)CCNC(C)=O)CC1	·	10	-19	·	3	17	4.2
5	CCc1c(O)nc(SCC(=O)N(CC)CC)[nH]c1=O	3909	7	3	2	0	-4	8.9
6	CCOc1ccc(NC(=O)CCSc2nc3c(c(CC)c2C#N)C(=O)CC(C)(C)C3)cc1	2449	-3	-3	-13	16	-6	-12
7	O=C(Nc1ccc(N2CCN(C(=O)c3ccco3)CC2)c(Cl)c1)c1cccs1	2434	82	-13	-4	·	·	13
8	CSCCC(=O)N1CCCC(CO)(CCCc2ccccc2)C1 (stereo not given)	4224	10	-11	-2	-1	7	4.4
9	O=C(Nc1ccc(F)cc1F)N1CCCCC1c1cccnc1 (stereo not given)	22683*	2	-5	-11	3	9	2.7
10	Cc1cc(C)nc(NS(=O)(=O)c2ccc(NC(=S)NC(=O)c3ccco3)cc2)n1	3454	73	-22	4	8	0	3.9
11	O=C(NCCn1c(C(F)(F)F)nc2ccccc21)C1CCCN1c1nc(CN2CCCCC2)cs1 (stereo not given)	·	0	·	·	18	2	8.1
12	COc1ccc(Oc2c(C)oc3c(CN4CCOCC4)c(O)ccc3c2=O)cc1	2439	-3	-9	-1	6	7	6.3
13	COc1ccc(CC(=O)OCCc2cc3cc(OC)c(OC)cc3c(=O)o2)cc1	3354	7	-1	·	11	9	3.8
14	O=C(NCc1ccccc1Cl)C(=O)c1cn(CC(=O)N2CCOCC2)c2ccccc12	4082	0	-1	-3	-6	-10	-3.7
15	N#Cc1ccc(CSCC(=O)NN=C2CCCC2)cc1	2167	-4	-32	4	8	2	6.1
16	Cc1ccc(/C(O)=C2\C(=O)C(=O)N(CCN(C)C)C2c2ccccc2F)cc1 (stereo not given)	20048*	2	-31	-13	8	19	4.1
17	CN(C)C(CNS(=O)(=O)c1ccc(Cl)cc1F)c1ccco1 (stereo not given)	4295	0	-3	·	-4	0	4.0
18	C[n+]1ccc(-c2ccccc2)c2ccccc21	4005	-13	-6	13	7	-6	0.4
19	Cc1c(C(=O)N2CCCC2)oc2c1-c1nn(CC(=O)NCCCN3CCCCC3)cc1CC2	4681	0	13	11	4	-2	5.9
20	CC(C)C(c1nnnn1C1CCCC1)N1CCOCC1 (stereo not given)	4182	6	-12	-5	·	·	0.6
21	C[C@H](NC(=O)[C@@H]1Cc2ccccc2CN1)C(=O)Nc1ccc2c(c1)OCCO2	4406	1	2	5	-1	-9	2.6
22	COc1cc(OC)c2c(N)c(C#N)c(C(F)(F)C(F)(F)F)nc2c1	3958	-3	1	-7	·	·	1.0
23	COc1ccc2oc(=N)c(-c3nnc4n3CCCCC4)cc2c1	8927	-3	-33	-4	17	7	3.1
24	Cc1ccccc1NC(=O)Cc1nc(COC(=O)Cc2ccccc2F)cs1	3430	14	-14	·	4	-8	1.6
25	c1ccc(CCNc2nc3ccccc3s2)cc1	?	45	-27	-4	9	3	-2.6
26	CCOc1ccc(C(=O)OCn2nnc3ccccc3c2=O)cc1OC	7024	15	-22	2	11	4	1.2
27	CCc1ccc(OCCCOc2ccc(C=O)cc2)cc1	11258	42	-21	1	0	13	-3.0
28	COC(=O)C1=C(c2cccc(OC)c2OC)CC2CCC1N2C(=O)NCc1ccc(C(F)(F)F)cc1 (stereo not given)	·	1	·	·	19	4	5.2
29	CCOc1ccc(NC(=O)C(=O)N/N=C\c2ccc(CNS(=O)(=O)c3ccccc3)o2)cc1	2065	·	-24	-15	·	·	·
30	Cc1ccc(-c2nc(N)s[n+]2-c2ccccc2)cc1	2133	0	-1	1	-2	4	-0.4
31	O=C(CSc1nnc(-c2cccnc2)s1)Nc1ccc(C(=O)O)cc1	1996	1	1	-15	18	13	0.4
32	O=C(NCC(=O)N1CCOCC1)OCc1ccccc1	3680	5	-11	-11	-5	1	1.9
33	CSCCC(NC(=O)c1ccco1)C(=O)NCC(c1ccccc1)N(C)C (stereo not given)	3489	4	-11	·	4	0	-0.3
34	CC(NC(=O)/C=C/c1ccco1)c1nc2ccccc2n1Cc1cccc(Cl)c1 (stereo not given)	1988	3	-18	0	3	-7	4.4
35	CCOCc1c(C(=O)OCC(=O)NCc2ccc(F)cc2)oc2ccccc12	3459	4	-30	·	0	11	3.0
36	CCOc1ccc(CCNC(=O)c2nnc(CS(=O)(=O)c3ccccc3)o2)cc1OCC	3449	-3	2	4	-15	-12	-2.9
37	COc1ccc(S(=O)(=O)N2CCC(C(=O)NC3CC3)CC2)cc1C	5527	12	-5	-12	18	7	4.2
38	COc1ccc(-c2c(C)n([O-])c3c([n+]2=O)CCC3)cc1OC	3910	-8	-9	-3	5	7	4.8
39	CC(C)[C@H](NC(=O)c1ccccc1F)C(=O)Nc1nc2c(s1)CCCC2	1907	1	-25	2	-6	1	7.0
40	N#Cc1c(N)nc2c(c1-c1ccncc1)CCCCCC2	23466*	1	8	16	1	-2	1.8
41	Cc1nc2c(cc1C(=O)N/N=C/c1ccc([N+](=O)[O-])cc1)c(=O)n(C)c(=O)n2C	2431	·	-8	10	·	·	·
42	CC(C)(C)OC(=O)NN=Cc1ccc(OC(=O)c2ccco2)cc1	·	0	·	·	-6	-7	9.2
43	CCCCC1(CN2CCCC2=O)C(=O)NC(=O)NC1=O	2807	-4	-6	-2	14	6	-7.2
44	CCOCCCNC(=O)c1[nH]c(C)c(C(C)=O)c1C	3431	10	1	9	·	·	8.3
45	CN(C(=O)c1ccc(NC(=O)Cc2ccc(NC(=O)C3CCCN(C(=O)C4CCC4)C3)cc2)cc1)C1CCCC1 (stereo not given)	3843	1	-63	·	-11	1	2.4
46	CN(C)CCN(Cc1ccco1)S(=O)(=O)c1ccc(-c2ccc(=O)[nH]n2)s1	4362	7	-11	-6	1	-5	3.5
47	Cc1cc(C)n(-c2c(C)[nH]c3ccccc23)n1	4393	6	-26	-2	6	2	6.9
48	COc1cccc(C2CC(c3ccccc3Cl)n3nc(N)nc3N2)c1 (stereo not given)	10414	0	-4	4	-9	-9	1.1
49	CC(C)(C)OC(=O)NCCc1nnc(SCC(=O)Nc2ccc(Br)cc2)o1	3688	6	-15	1	4	-7	1.9
50	O=C(Nc1c(-c2ccccc2)nc2ccc(Cl)cn12)c1cccs1	1994	9	-16	-3	-1	7	3.8
51	Cc1cc(N/N=C/c2ccc([N+](=O)[O-])o2)nc2ccccc12	5068	·	-57	8	·	·	·
52	CCN(CC)S(=O)(=O)c1ccc(N2CCOCC2)c(NS(=O)(=O)c2cccs2)c1	3321	3	-20	·	4	5	0.0
53	COc1cc(-c2nnc(SCC(=O)c3ccc(C)cc3)o2)cc(OC)c1OC	10858	3	-15	-1	7	7	10
54	COc1ccc(CN2c3c(Br)cccc3C(=O)CS2(=O)=O)cc1	3666	3	-27	·	-9	-2	4.4
55	COC(=O)c1c(-c2c(Cl)cccc2Cl)noc1C(=O)NNC(=O)N(C)C	5978	6	-26	-1	8	0	4.4
56	CCCCCN1C(=O)/C(=C/c2c(N3CCc4ccccc4C3)nc3ccccn3c2=O)SC1=S	21934*	0	-42	-4	18	-8	0.8
57	Cc1ccnc(-n2c(-c3ccccc3)nc3ccccc3c2=O)c1	19731*	8	-3	-11	1	0	2.7
58	COc1ccc(-c2nc(C#N)c(NCC3CCCO3)o2)cc1OC (stereo not given)	10968	3	-17	17	8	14	1.1
59	CCOc1ccccc1OC(c1ccccc1)C1CNCCO1 (stereo not given)	·	-4	·	·	10	4	3.7
60	CC(=O)Cn1ncc(N2CCOCC2)c(Cl)c1=O	3361	10	-16	4	4	0	3.9

(cont.)
entry	SMILES	Bead autofluor	Sa ugtP lethal	PrP UTR inh	BJeLR lethal	Mtb hypoxia inh	Mtb hypoxia inh growth	RN4220 kill
61	Cc1[nH]n(-c2ccccc2)c(=O)c1C=Nc1ccc(S(N)(=O)=O)cc1	4037	1	-18	-2	16	2	2.5
62	COc1ccc(OC)c(C(=O)c2coc3ccc(OCC(=O)O)cc23)c1	4261	-8	-11	-26	9	14	5.7
63	O=C(NN=CC=Cc1ccccc1)c1ccncc1	·	6	·	·	·	·	0.0
64	COc1ccc2c(c1)cc(C(=O)N[C@@H](Cc1ccccc1)C(=O)O)n2C	4018	3	-23	-1	17	10	1.3
65	CC(C)N(Cc1ccccc1)C(=S)NCCN1CCOCC1	4246	1	-17	-6	0	-5	3.3
66	O=C(CCNC(=O)c1ccccc1Cl)NCc1ccco1	?	-6	-4	·	-1	12	-3.2
67	CC1CN(Cc2ccccn2)CCC1=O (stereo not given)	2732	12	-17	0	3	0	-1.7
68	Cc1ccccc1OCCNc1cc(N2CC(C)NC(C)C2)ccc1[N+](=O)[O-] (stereo not given)	6165	-22	-6	-19	13	22	-25
69	CCCCn1c(-c2ccoc2C)n[nH]c1=S	23012*	-5	-10	9	2	19	0.5
70	O=C(Nc1cccc(C(F)(F)F)c1)c1ccc(-n2cncn2)nc1	2000	-15	-14	-3	0	2	-1.7
71	COc1cc2c(cc1OC)CN(C(=O)CCNC(=O)c1ccc(Br)cc1)CC2	5958	15	-5	·	-1	13	3.2
72	CCc1cccc(NC(=S)N(CCOC)C2CCN(C(C)=O)CC2)c1	4253	10	-21	-2	10	-2	8.5
73	O=C(N[C@@H](Cc1ccccc1)C(=O)Nc1ccc(F)cc1)C1CCNCC1	5365	2	0	2	0	5	2.7
74	COc1cc(C=C2SC(=O)N(c3ccc(Cl)cc3)C2=O)cc([N+](=O)[O-])c1O	·	2	·	·	1	-3	3.5
75	COc1ccc(OCc2nnc(SCC(N)=O)n2-c2ccccc2OC)cc1	19312*	3	-2	0	9	7	6.4
76	CC1=C(C#N)C(c2cccnc2)C2=C(CC(c3ccc(Cl)cc3)CC2=O)N1 (stereo not given)	5863	4	-4	3	10	6	7.6
77	CCOC(=O)N1CCN(C(=O)c2sc3nc(-c4ccc(F)cc4)cn3c2C)CC1	9581	-6	-21	-2	8	4	3.0
78	C=CCc1cc(C(=O)N2CCCCC2)ccc1O	?	9	-19	10	0	0	6.3
79	CCOCCCNCc1ccc(OCc2ccc(F)cc2)c(OC)c1	4845	·	0	-10	·	·	·
80	COc1ccc(C(=O)ON=C2CCN(C)CC2)cc1	4512	-1	-23	3	4	-3	-1.8
81	Cc1cccc(NS(=O)(=O)c2ccc(C(=O)N3CCCCCC3)cc2)c1C	6102	-5	-29	8	-3	-5	8.9
82	COc1ccc2[nH]c3c(c2c1)CCN1C(=O)C(CC(=O)NCCCn2ccnc2)C[C@H](C(=O)N2CCOCC2)[C@@]31CCC1CCCC1 (stereo not given in full)	3698	7	-4	·	-14	3	-3.9
83	COc1ccc(C(=O)c2nc3ccccc3n2C(C)C)cc1	4299	5	-14	-4	10	12	5.7
84	CN1CCN(C(=O)/C(=C/c2ccccc2F)NC(=O)c2ccccc2)CC1	3068	-5	5	-3	5	2	0.0
85	NC(=O)COC(=O)c1ccc(C(=O)C(=O)c2ccccc2)cc1	3351	6	-2	7	-6	1	-1.8
86	Cc1ncc(CO)c(C=NNC(=O)c2cc(O)c(O)c(O)c2)c1O	·	-4	·	·	22	-3	13
87	O=C(CCNC(=O)c1ccccc1Cl)Nc1ccc(Cl)c(C(F)(F)F)c1	2427	-12	6	-7	15	-3	0.1
88	Cc1ccc(CC(=O)Nc2ccc(S(=O)(=O)N3CCOCC3)cc2)cc1C	·	11	·	·	7	0	5.8

Screening results as filed in PubChem.
